Compound activity from PubChem BioAssay.
Rce1 inh: yeast Rce1p protease inhibitors, primary screen, biochemical, fluorescence, cell-free homogeneous | AID 2563, 2010 | yeast membranes, quenched prenylated peptide cleavage fluorescence | calls only | 0.27% of 290,000 active;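 active = fall in fluorescence gain of 50% or more versus controls, with final raw signal at or below 3038400; inconclusive = same 50% fall but final raw signal above 3038400; inactive = fall in fluorescence gain under 50%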;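 also: plate controls were neutral control wells for no effect and wells lacking membranes for full effect; tested at 10 µM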
Target sequence (Q03530 whole entry, looked up): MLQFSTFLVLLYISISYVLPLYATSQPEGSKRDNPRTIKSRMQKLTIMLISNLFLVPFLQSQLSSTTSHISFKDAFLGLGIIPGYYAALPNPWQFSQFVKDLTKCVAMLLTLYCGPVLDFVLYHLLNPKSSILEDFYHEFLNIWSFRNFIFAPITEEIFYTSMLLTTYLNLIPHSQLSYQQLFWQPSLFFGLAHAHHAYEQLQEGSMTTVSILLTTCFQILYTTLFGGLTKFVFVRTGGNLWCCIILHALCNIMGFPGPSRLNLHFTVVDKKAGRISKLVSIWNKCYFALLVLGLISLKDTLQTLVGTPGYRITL
UUG fidelity: modulators of yeast start codon fidelity, primary screen, whole organism, S. cerevisiae, single point, plate reader | 0.13% of 350,000 active | activity score, % at 18.7 µM | AID 602363, 2012 | S. cerevisiae UUG-firefly luciferase reporter, luminescence/redox ratio;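 active = replicate mean at a twofold rise or more, about +100% in these data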;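 also: firefly luciferase made from a UUG start codon reports start codon fidelity; reporter light over untreated wells divided by growth signal over untreated wells; some hits fall short of that in this replicate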
CSC inhib: cancer stem cell viability inhibitors, primary screen, luminescence; cancer stem cell-like cells viability; AID 2717, 2010; inhibition, % at 7.5 µM; 1.1% of 300,000 active;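 active = mean at 75% or more and at least half the replicates too; inconclusive = mean and replicates disagree; tested in HMLE shEcad cells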;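 also: 0% = median of negative and 100% = median of positive control wells; the first replicate is given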
PABP polyA inh: PABP poly(A) RNA binding inhibitors, primary screen, biochemical, fluorescence polarization, uHTS; 1% of 290,000 active; Polyadenylate-binding protein 1 (Homo sapiens), P11940; inhibition, % at 35 µM;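 active = 50% or more with normal probe brightness, or confirmed in later tests; inconclusive = above 50% with abnormal brightness, or retests that disagree; inactive = below 50% or failed in later tests; about a fifth of its hits are not listed in these tables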;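 also: calls also rest on retests at 20 µM and on dose response follow-up; controls were probe without protein and protein plus probe with vehicle; some compounds called inactive have numbers as strong as hits; many hits fall short of the cut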
Target sequence (P11940 whole entry, looked up): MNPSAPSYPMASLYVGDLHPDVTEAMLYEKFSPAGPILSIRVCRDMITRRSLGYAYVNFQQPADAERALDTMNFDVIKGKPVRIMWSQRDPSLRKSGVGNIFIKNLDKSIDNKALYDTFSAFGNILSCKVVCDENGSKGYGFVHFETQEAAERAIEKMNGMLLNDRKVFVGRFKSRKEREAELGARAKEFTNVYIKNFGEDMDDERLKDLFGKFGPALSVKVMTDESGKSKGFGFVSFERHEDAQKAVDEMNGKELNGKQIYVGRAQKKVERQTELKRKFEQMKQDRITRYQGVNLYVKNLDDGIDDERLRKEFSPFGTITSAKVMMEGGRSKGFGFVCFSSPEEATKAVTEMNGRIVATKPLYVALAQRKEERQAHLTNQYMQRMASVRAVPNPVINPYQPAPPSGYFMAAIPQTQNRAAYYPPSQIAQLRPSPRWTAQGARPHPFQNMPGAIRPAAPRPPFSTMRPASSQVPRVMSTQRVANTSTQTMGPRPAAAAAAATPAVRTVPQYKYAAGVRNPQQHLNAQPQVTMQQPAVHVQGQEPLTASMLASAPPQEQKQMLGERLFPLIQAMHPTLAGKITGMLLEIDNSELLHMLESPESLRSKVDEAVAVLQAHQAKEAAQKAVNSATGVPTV
MT1-MMP act inh: blockers of MT1-MMP proenzyme processing, primary screen, HT1080 RFP-PRO-GFP cells, GFP/RFP fluorescence. Matrix metalloproteinase-14 (Homo sapiens), P50281. GFP/RFP ratio fluorescence, overnight; percent of plate control window, DMSO zero. GFP/RFP ratio change, % at 20 µM. 0.061% of 360,000 active;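 active = GFP/RFP ratio change of at least 30% with cell ATP level not reduced by more than half and red fluorescence within 50% of control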; also: strong numbers were not always called active
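Material – HT1080 RFP-PRO-GFP cells · Control set – DMSO wells and RFP-L50D-GFP cells · Incubation – overnight cell settling, then overnight compound exposure, 37 °C, 5% CO2 · Compound dosing – single-point 20 µM compound, 1% DMSO · Read-out – GFP/RFP fluorescence ratio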
eIF4H FP inh: human eIF4H binding inhibitors, primary screen, translation initiation inhibitor project, biochemical, uHTS, fluorescence polarization. Eukaryotic translation initiation factor 4H (Homo sapiens), Q15056. eIF4H fluorescence polarization binding assay. inhibition, % at 35 µM. 0.94% of 290,000 active;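 active = 50% or more with normal probe brightness, or confirmed in later tests; inconclusive = above 50% with abnormal brightness, or retests that disagree; inactive = below 50% or failed in later tests; about a fifth of its hits are not listed in these tables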;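 also: calls also rest on retests at 20 µM and on dose response follow-up; 0% = protein and probe with vehicle and 100% = probe without protein; strong numbers were not always called active; many hits fall short of the cut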
Env fusion inh: inhibitors of HIV-1 Env-driven cell-cell fusion, primary screen, HeLa-JRFL effector, CEM21 target cells, luciferase | 1.1% of 360,000 active | inhibition, % at 12.3 µM | AID 651610, 2012;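 active = mean replicate inhibition score of at least 50 and every replicate individually at or above 50; inconclusive = only one of the two criteria met; inactive = mean below 50 and not all replicates reaching 50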;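 also: 0% = plate neutral controls and 100% = maraviroc near 300 nM; one replicate is shown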
MT1-MMP act inh RFP: second read-out of MT1-MMP act inh, no call of its own (marks repeat the call); RFP signal change, %; measured here: RFP expression control read;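 0 = vehicle wells; hits needed this value within 50% of zero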
Active calls of the source: *; i = inactive; ? = inconclusive; nt = not tested or not shown; & = joins results of further samples.

Sample of the layout:
Results follow in this order: Rce1 inh, UUG fidelity, CSC inhib, PABP polyA inh, MT1-MMP act inh, MT1-MMP act inh RFP, eIF4H FP inh, Env fusion inh
1	O=[N+]([O-])c1cccc(-c2nnc(-c3ccccc3)o2)c1
→ i, nt, -13, 10, -4, 1, -4, -51
2	CC(=O)c1cccc(N(C(=O)c2ccco2)C(C(=O)NC2CCCC2)c2ccncc2)c1 (configuration not stated)
→ i, 9, -15, 8, 1, 6, 0, nt
3	C/C(=N\NC(=O)c1cc(-c2ccc(C)s2)nc2ccccc12)c1cccnc1
→ i, 1, 9, -8, 2, 1, 4, -26
4	COc1cccc(C(NC(C)=O)c2nc(-c3cccc(NC(C)=O)c3)cs2)c1 (configuration not stated)
→ nt, -8, nt, nt, 0, -3, nt, 6
5	COc1cc([N+](=O)[O-])ccc1NC(=O)CN1CCCC1
→ i, nt, nt, 13, 6, 9, 1, 3
6	CS(=O)(=O)N1c2cccc3cccc(c23)S1(=O)=O
→ i, -9, -9, 7, -3, 4, 0, -3
7	COc1ccc(C(=O)CCC(=O)Nc2cccnc2)cc1OC
→ i, nt, 16, -4, -2, 1, 3, 11
8	Cc1nn(C2CCS(=O)(=O)C2)c(Cl)c1/C=C/C(=O)OCC(N)=O (configuration not stated)
→ i, nt, 0, 7, 1, -1, -1, 5
9	O=S(=O)(O)c1cc(O)ccc1O
→ nt, -7, -5, nt, 3, 0, nt, 34
10	COc1ccccc1-c1cc(NC=O)c2ncc(-c3cccc(C(F)(F)F)c3)n2c1
→ nt, 13, nt, nt, -9, -9, nt, 22
11	COc1ccc(C(=O)CN2CCN(S(=O)(=O)c3cccc([N+](=O)[O-])c3)CC2)cc1OC
→ nt, 1, -9, 6, 0, 1, -9, 21
12	COC(=O)COc1ccc(C2NC(=O)NC(c3ccccc3)=C2C(C)=O)cc1Br (configuration not stated)
→ i, -4, 10, -12, -1, 1, -12, -4
13	COC(=O)C1(C(=O)OC)C(C(=O)c2ccccc2)C1c1ccccc1 (configuration not stated)
→ nt, -16, nt, nt, 0, -2, nt, 2

All compounds of this part, repeating the preview:
Results follow in this order: Rce1 inh, UUG fidelity, CSC inhib, PABP polyA inh, MT1-MMP act inh, MT1-MMP act inh RFP, eIF4H FP inh, Env fusion inh
1	O=[N+]([O-])c1cccc(-c2nnc(-c3ccccc3)o2)c1
→ i, nt, -13, 10, -4, 1, -4, -51
2	CC(=O)c1cccc(N(C(=O)c2ccco2)C(C(=O)NC2CCCC2)c2ccncc2)c1 (configuration not stated)
→ i, 9, -15, 8, 1, 6, 0, nt
3	C/C(=N\NC(=O)c1cc(-c2ccc(C)s2)nc2ccccc12)c1cccnc1
→ i, 1, 9, -8, 2, 1, 4, -26
4	COc1cccc(C(NC(C)=O)c2nc(-c3cccc(NC(C)=O)c3)cs2)c1 (configuration not stated)
→ nt, -8, nt, nt, 0, -3, nt, 6
5	COc1cc([N+](=O)[O-])ccc1NC(=O)CN1CCCC1
→ i, nt, nt, 13, 6, 9, 1, 3
6	CS(=O)(=O)N1c2cccc3cccc(c23)S1(=O)=O
→ i, -9, -9, 7, -3, 4, 0, -3
7	COc1ccc(C(=O)CCC(=O)Nc2cccnc2)cc1OC
→ i, nt, 16, -4, -2, 1, 3, 11
8	Cc1nn(C2CCS(=O)(=O)C2)c(Cl)c1/C=C/C(=O)OCC(N)=O (configuration not stated)
→ i, nt, 0, 7, 1, -1, -1, 5
9	O=S(=O)(O)c1cc(O)ccc1O
→ nt, -7, -5, nt, 3, 0, nt, 34
10	COc1ccccc1-c1cc(NC=O)c2ncc(-c3cccc(C(F)(F)F)c3)n2c1
→ nt, 13, nt, nt, -9, -9, nt, 22
11	COc1ccc(C(=O)CN2CCN(S(=O)(=O)c3cccc([N+](=O)[O-])c3)CC2)cc1OC
→ nt, 1, -9, 6, 0, 1, -9, 21
12	COC(=O)COc1ccc(C2NC(=O)NC(c3ccccc3)=C2C(C)=O)cc1Br (configuration not stated)
→ i, -4, 10, -12, -1, 1, -12, -4
13	COC(=O)C1(C(=O)OC)C(C(=O)c2ccccc2)C1c1ccccc1 (configuration not stated)
→ nt, -16, nt, nt, 0, -2, nt, 2
14	COc1ccc(NC(=O)c2cccc(Cl)c2)c[n+]1[O-]
→ i, -12, -3, -6, -1, 0, -8, 0
15	CCOc1ccccc1C(=O)NC1CC2CCCC(C1)N2C1CC1 (configuration not stated)
→ i, 7, -9, 0, 0, 4, 9, -34
16	O=C(C1=C(O)C(=O)N(CCN2CCOCC2)C1c1ccc(F)cc1)c1cccs1 (configuration not stated)
→ i, -8, 7, 14, 1, 4, 5, -12
17	CC1CCCCC1NC(=O)CCNS(=O)(=O)c1ccc2c(c1)CCC(=O)N2 (configuration not stated)
→ i, 0, 1, 8, 2, 2, -6, -5
18	C(=NN1CCCCCC1)c1ccccc1
→ nt, -19, nt, nt, -4, 0, nt, 1
19	Cc1c(S(=O)(=O)N2CCCC(C(=O)O)C2)cnn1C (configuration not stated)
→ i, -4, -2, -11, 9, 2, 5, 8
20	C=CCc1c(C)nc2ccc(C(=O)OCC)cc2c1Cl
→ i, -5, -7, -4, -4, -2, -4, 6
21	CCNc1nc(NC(C)C)nc(Oc2ccc(OCCOc3ccccc3)nn2)n1
→ i, -6, -12, 1, 10, 6, 3, nt
22	COc1ccc(NC(=S)NCCNC(C)=O)cc1
→ i, -19, 0, 0, 3, 4, -8, -12
23	CCCN(CC1CC1)C(=O)COC(=O)c1ccc(CNS(=O)(=O)c2ccc(F)c(Cl)c2)cc1
→ i, nt, -4, 8, 5, 7, 0, 11
24	CCC1(C)Cc2nc3[nH]c(=S)n(-c4ccccc4)c(=O)c3cc2CO1 (configuration not stated)
→ i, -21, -11, 8, -1, -6, -12, -1
25	Cc1ccc(CN2CCc3c(OCc4ccc(F)cc4)cccc3C2=O)cc1
→ i, 10, 31, -11, -9, -22, -7, 54
26	COc1ccc2cc(S(=O)(=O)Nc3ccccn3)ccc2c1
→ i, 2, 6, -2, 3, 6, 0, -32
27	CCC(=O)Nc1ccc(C(=O)CSc2nnc(-c3ccc(NS(=O)(=O)CC)cc3)o2)cc1OC
→ i, -14, -12, -2, 3, 6, -4, 0
28	CCCC(=O)OC1CCS(=O)(=O)c2sccc21 (configuration not stated)
→ i, -6, -10, -12, 0, 3, -1, -14
29	COC(=O)C1=C(C)N(c2ccc(F)cc2)/C(=C/c2ccc(O)cc2)C1=O
→ i, -15, -30, -7, -122, -9, -5, 29
30	COC(=O)C1C(c2ccc(OC)cc2)Nc2nnc(C(F)(F)F)n2C1(C)O (configuration not stated)
→ i, nt, 1, -9, 2, 3, -1, 4

New compounds follow:
Results follow in this order: Rce1 inh, UUG fidelity, CSC inhib, PABP polyA inh, MT1-MMP act inh, MT1-MMP act inh RFP, eIF4H FP inh, Env fusion inh
31	CN(C)CC(O)c1ccc(C=Cc2ccc(Cl)cc2)cc1 (configuration not stated)
→ nt, -5, nt, nt, 3, -4, nt, -50
32	CC(=O)c1c(C)oc2c1C(=O)c1ccccc1C2=O
→ i, -32, 83*, 6, -1, -4, 3, 13
33	Cc1cc(NC(=O)C2CC=CCC2C(=O)O)ccc1NC(=O)c1ccccc1 (configuration not stated)
→ i, -11, -15, 0, -39, 22, 21, 1
34	COc1ccc(OC)c(/C=C/c2nc3ccccc3[nH]c2=O)c1
→ nt, 8, -8, ?, -40, 4, ?, -3
35	COc1ccc(OC)c2[nH]c(=O)c(CCNC(=S)NC(C)(C)C)cc12
→ i, nt, -22, 8, 5, 5, -9, -6
36	C[C@@H]1CN([C@@H](C)CO)C(=O)CCCn2nncc2CO[C@H]1CN(C)C(=O)Nc1ccnc(N2CCOCC2)c1
→ nt, -16&0, nt, nt, -2, 3, nt, 8
37	COC(=O)c1ccccc1NC(NC(=O)c1ccco1)C(=O)c1ccc(C)cc1 (configuration not stated)
→ i, nt, -10, 3, -2, 0, 1, -29
38	Clc1ccc(-c2ccc(-c3nn4c(-c5ccco5)nnc4s3)o2)cc1
→ i, -1, -6, nt, -8, 3, nt, -69
39	CCOc1ccc2ccccc2c1C(=O)NCC(c1ccc(N(C)C)cc1)N(C)C (configuration not stated)
→ i, -4, -3, 5, 3, 3, 17, 27
40	Cc1c(Cl)cccc1NC(=O)CNC(=O)c1cn(-c2ccccc2)nc1-c1cccnc1
→ nt, -26, nt, nt, 5, 0, nt, 16
41	CCC(=O)c1ccc(OCC(O)Cn2cnc3ccccc32)cc1 (configuration not stated)
→ i, -19, -2, 6, -3, -10, 5, nt
42	COc1ccc(Cl)cc1C(=O)NNC(=O)CSc1nnnn1C
→ i, nt, nt, 16, -2, 1, 2, 5
43	CCn1c(CCNC(=O)c2ccc(Cl)cc2)nnc1SCC(=O)NC1CCCC1
→ i, -11, 0, 14, -1, 1, -2, 14
44	Cc1ccc(Cl)c(NC(=O)COC(=O)c2cc[n+]([O-])cc2)c1Cl
→ nt, -2, -12, nt, -5, 0, nt, -5
45	Cc1cc(C(=O)N2CCc3ccccc3C2)no1
→ i, -12, 1, 1, -2, -3, 1, -13
46	CCOC(=O)CN(C(=O)CSc1nnc(-c2ccncc2)n1CCCN(C)C)c1ccccc1
→ i, nt, 10, -4, -4, 0, 4, 0
47	CCOc1ccc(NC(=O)c2ccc3nccnc3c2)cc1
→ i, -18, -13, -6, 0, 1, -3, nt
48	CS(=O)(=O)C1=C(O)C(=O)N(c2ccccc2)C1c1ccccc1 (configuration not stated)
→ i, -18, nt, 13, 0, 2, 0, nt
49	O=C(COC(=O)c1ccc2ccccc2c1O)Nc1ccccc1
→ nt, 0, nt, nt, 3, 3, nt, 21
50	O=C(CN1C(=O)NC(Cc2c[nH]c3ccccc23)C1=O)Nc1ccc(F)cc1F (configuration not stated)
→ nt, -11, 3, nt, -2, -1, nt, -12
51	O=C(NN=Cc1ccc(Cl)cc1Cl)C1CC1
→ nt, -28, nt, nt, -1, -3, nt, 2
52	CCOC(=O)C1=C(O)c2ccccc2C(=O)/C1=C\c1ccc(CC)cc1
→ i, 2, 27, 1, -42, 79, -15, nt
53	O=C(NN=C1CCCC1)c1ccc(Cl)cc1
→ i, -11, -1, 2, 2, 4, 2, -26
54	O=C(NCc1cccnc1)c1ccccc1NS(=O)(=O)c1ccccc1
→ i, 0, -13, 5, -2, 0, -6, -1
55	CC(=O)NC(C)c1nc2ccccc2n1C(C)C (configuration not stated)
→ i, 1, 2, -8, 4, 8, 0, -14
